HTT promoter inh = inhibitors of huntingtin promoter activity; Potency, µM (series often up to 57.5 µM), for the others: at the highest dose activity change, negative = inhibition, actives largely listed as inhibitors; 48,000 compounds, 0.93% hits; HEK293 HTT promoter firefly luciferase reporter (activity 0% = vehicle and -100% = no light), 24 h; AID 1508623; active means well fitted inhibition curve with a large enough effect; inconclusive means small, poorly fitted or top-dose-only effect; inactive means no such curve, though single readings can be large or run the other way; further: nearly all actives have a fitted effect of over 50% in size
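HEK293 luciferase promoter-reporter cells (2,500/well) plated 24 h, then compounds added at up to 57.5 uM final for 24 h at 37 °C. Firefly luminescence by Dual-Glo, normalized to vehicle (0%) and zero RLU (-100%).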
PMP22 txn = modulators of PMP22 gene transcription in S16 Schwann cells. S16 Pmp22-F2sN Schwann cells (luciferase reporters placed in the Pmp22 gene), FLuc/NLuc coincidence luminescence, 24 h. Potency, µM (highest dose often 57.5 µM), for the others: at the top dose activity change, negative = inhibition, usual class: inhibitors. 43,000 compounds, 2% hits. AID 1508649; active = clear falling dose curves in both reporters; inconclusive = both reporters move, but less clearly or upward; inactive = either reporter flat; the % is the NLuc reporter signal; further: on the % scale 0 is the no-effect control and ±100 the full control effect; some results filed as inactive show a strong effect at the top dose
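Reporter cells (S16 Pmp22-F2sN, 500–1,000 per well) exposed to compounds for 24 h, 37C, 5% CO2; lysis with FLuc read after 10 min, then Stop&Glo and NLuc read after 10 min.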
* hit, by the source's call; ? = inconclusive; . = not tested or not shown; [ ] = dose if it differs, or a comment. Potency means the concentration at half of the fitted maximal effect. Not a hit list; overall some 2.4% were active at least once.

molecule | HTT promoter inh | PMP22 txn
O=C(CCCn1c(=O)c2ccccc2n(CC(=O)Nc2cccc(C(F)(F)F)c2)c1=O)NCc1ccc2c(c1)OCO2 | -14% | 11%
COc1ccc(OC)c(-c2noc(N3CCN(c4cccc(C)c4C)CC3)n2)c1 | -29% | -28%
COc1ccc(OCC(=O)Nc2nnc(S(=O)(=O)N3CCc4ccccc43)s2)cc1 | -7% | 4%
O=C(c1cccs1)N(Cc1cccnc1)c1nc2ccc(F)cc2s1 | ? | -19%
CC(=O)c1cccc(NC(=O)c2noc3c2CSc2ccccc2-3)c1 | 52%[activator] | ?
O=C(Cn1c(-c2cccs2)cc2cc(Cl)ccc21)NCc1ccccc1 | ? | 39%
CC(=O)N1c2ccccc2CC1C(=O)N1CCN(c2ccccc2)CC1 (stereo not given) | 0% | 15%
Cc1ccc(/C=N/NC(=O)c2ccccc2Oc2ccccc2)o1 | -17% | .
Cc1cccc(CNC(=O)c2ccc(-c3nc(CS(=O)(=O)c4ccccc4)c(C)o3)cc2)c1 | ? | -4%
COc1ccc(-c2nc(CSCC(=O)N3CCN(c4cccc(C)c4C)CC3)c(C)o2)cc1OC | 13µM* | ?
O=C(NCc1ccco1)c1ccc2c(c1)N(Cc1ccccc1)C(=O)c1ccccc1S2(=O)=O | -20% | 5%
Cc1ccc(NC(=O)Nc2nc3c(s2)CCCCCC3)cc1C | -19% | -30%

molecule | HTT promoter inh | PMP22 txn
COc1ccc(N2CCN(C(=O)CSc3n[nH]c(-c4ccccc4Cl)n3)CC2)cc1 | -14% | -84%
CCC(Sc1nnc2c(n1)[nH]c1ccccc12)C(=O)Nc1ccccc1OC (stereo not given) | -1% | -125%
Cc1ccc(C)c(Nc2nn3c(=O)c4ccc(C(=O)NCc5ccccc5)cc4nc3s2)c1 | -19% | ?
COc1ccc(-n2c(SCC(=O)NCc3ccco3)nc3c([nH]c4ccccc43)c2=O)cc1 | -17% | ?
CC1=C(C(=O)OC2CCCCCC2)C(c2cccc(Cl)c2)CC(=O)N1 (stereo not given) | ? | ?
CCCN1CN=C(NS(=O)(=O)c2ccc(NC(C)=O)cc2)NC1 | -17% | -13%
COc1ccc(N2CCN(C(=O)CCC(=O)NNc3nc4ccccc4c4nc(C)nn34)CC2)cc1 | -26% | -13%
COc1cc(OC)c(N(C)C(=O)CCNC(=O)Cn2cnc3ccccc3c2=O)cc1Cl | -7% | -2%
Cn1c(Oc2ccccc2)nc2c1c(=O)n(Cc1ccc(Cl)cc1Cl)c(=O)n2C | ? | -28%
CCC1=Nc2cc(C(=O)NC3CCC(C)CC3)ccc2Sc2ccc(C)cc21 (stereo not given) | ? | 5.7µM*
COc1ccc(-c2noc(C3CC(=O)N(c4ccc5c(c4)OCCO5)C3)n2)c(OC)c1 (stereo not given) | 0% | -6%
Cc1cccc(N(C)C(=O)Cn2c(=O)oc3cc(S(=O)(=O)N4CCCCC4)ccc32)c1 | -1% | -2%

molecule | HTT promoter inh | PMP22 txn
CC(=O)O[C@]1(C(C)=O)CC[C@H]2[C@@H]3C=C(C)C4=CC(=O)CC[C@]4(C)[C@H]3CC[C@@]21C | 6% | .
O=C(OCC(O)CO)c1ccccc1Nc1ccnc2c(C(F)(F)F)cccc12 (stereo not given) | -15% | .
COc1cc(C2NC(=O)c3c(sc4c3CCN(C)C4)N2)ccc1OC(=O)c1ccccc1 (stereo not given) | 64%[activator] | ?
CC(=O)N1c2ccc(S(=O)(=O)N3CCCCCC3)cc2CC1C(=O)NC(C)C (stereo not given) | -1% | -6%
CCCN(Cc1cccs1)C(=O)Nc1cc(OC)ccc1OC | -7% | -25%
CCOc1cc(C(=O)NCCc2sc(-c3ccc(F)cc3)nc2C)cc(OCC)c1OCC | ? | ?
O=C(CCS(=O)(=O)c1ccc(Br)s1)Nc1cc(C(F)(F)F)cc(C(F)(F)F)c1 | ? | 20µM*
O=[N+]([O-])c1cc(-c2nc(-c3ccco3)no2)ccc1NCc1ccccc1 | 15% | -27%
COC(=O)C1=C(C)NC(COC(N)=O)=C(C(=O)OC(C)C)C1c1cccc(Cl)c1Cl (stereo not given) | -17% | .
O=C(NOCC1CC1)c1ccc(F)c(F)c1Nc1ccc(I)cc1Cl | ? | .
Cc1ccc(-n2c(=O)c3ccc(C(=O)NCc4ccccc4Cl)cc3n(Cc3ccccc3F)c2=O)cc1 | -11% | 0%
COC(=O)c1ccccc1-n1c(CCC(=O)O)ccc1-c1ccccc1 | -9%[11.5 µM] | -19%

molecule | HTT promoter inh | PMP22 txn
COc1ccc(-c2cc(C(F)(F)F)nc(NCc3ccc(Cl)cc3)n2)cc1 | -19% | -2%
COC(=O)c1c(SC)nc2ccccc2c1OCc1ccccc1Cl | ? | ?
CCOc1ccc(NC(=O)C2CCN(S(=O)(=O)c3c(C)noc3/C=C/c3c(C)cc(C)cc3C)CC2)cc1 | -20% | -3%
COc1ccccc1NC(=O)Cn1c(SCC(=O)NCc2ccccc2)nc2ccccc21 | -31% | 2%
COc1ccc(Cl)cc1NC(=O)c1sc2nc3n(c(=O)c2c1C)CCC3 | -1% | 2%
O=C(Nc1cccc(C(F)(F)F)c1)c1cnn(-c2cccc(F)c2)c1C1CCNCC1 | -3% | -7%
O=C(NCCc1ccccc1)c1ccc(Cn2c(SCc3ccc(F)cc3)nc3cccnc32)cc1 | -14% | -27%
COC(=O)c1scc(-c2ccc(C)cc2)c1S(=O)(=O)Nc1cc(C)c(Cl)cc1OC | -33% | ?
CCOC(=O)N1CCc2c(sc3c2c(=O)n(-c2ccccc2C(F)(F)F)c(=O)n3Cc2ccccc2C)C1 | ? | -2%
CCOC(=O)c1c(NC(=O)c2ccc(C)c(C)c2)sc2c1CCCCC2 | -7% | -21%
Cc1ccc(NS(=O)(=O)c2ccc3c(c2)CCCN3C(=O)C2CCC2)cc1Cl | 22µM* | ?
O=C(O)CCC1CCC(c2cc(F)ccc2F)(S(=O)(=O)c2ccc(Cl)cc2)CC1 (stereo not given) | 3% | .

Single records, from the list above. Order of values: HTT promoter inh | PMP22 txn
O=C(NCCc1ccccc1)c1ccc(Cn2c(SCc3ccc(F)cc3)nc3cccnc32)cc1 in the list: -14% | -27%
Cc1ccc(NS(=O)(=O)c2ccc3c(c2)CCCN3C(=O)C2CCC2)cc1Cl in the list: 22µM* | ?
O=C(O)CCC1CCC(c2cc(F)ccc2F)(S(=O)(=O)c2ccc(Cl)cc2)CC1 (stereo not given) in the list: 3% | .
CCOc1ccc(NC(=O)C2CCN(S(=O)(=O)c3c(C)noc3/C=C/c3c(C)cc(C)cc3C)CC2)cc1 in the list: -20% | -3%
CCOC(=O)N1CCc2c(sc3c2c(=O)n(-c2ccccc2C(F)(F)F)c(=O)n3Cc2ccccc2C)C1 in the list: ? | -2%

Other records follow:
molecule | HTT promoter inh | PMP22 txn
CSc1ccc(-c2nc3cc(C)ccn3c2Nc2ccc(C)cc2)cc1 | 18% | 0%
CC(=O)Nc1ccc(NC(=O)c2ccc3c(c2)N(Cc2cccc(Cl)c2)C(=O)c2ccccc2S3(=O)=O)cc1 | -22% | -18%
CSc1ccc(CCNC(=O)c2ccc(-n3c(C)cc4c3CCC(C)C4)cc2)cc1 (stereo not given) | 38%[activator] | -13%
O=C(NC1CC(=O)N(c2ccc(F)cc2)C1)c1cc2ccccc2o1 (stereo not given) | 9% | 8%
CCCn1cc(S(=O)(=O)c2cc(C)ccc2C)c(=O)c2cc(F)c(N3CCN(CC)CC3)cc21 | -14% | ?
CCOC(=O)c1cc2c(=O)n3ccccc3nc2n(CCOC)c1=NC(=O)c1c(-c2c(F)cccc2Cl)noc1C | -34% | ?
CCN(CC)c1ccc(NC(=O)CN2C(=O)c3cccnc3Oc3ccccc32)c(C)c1 | -5% | -43%
COc1ccc(-c2nc3cc(NC(=O)COc4ccccc4C)ccc3o2)cc1 | -1% | -9%
Cc1cccc(OCCSc2nc3ccc(NC(=O)COc4ccccc4F)cc3s2)c1 | ? | ?
COc1ccc(CNC(=O)c2nn(-c3ccccc3C)nc2CO)cc1 | -20% | -6%
CCCC(=O)Nc1ccc2nc(SCc3ccc(C)cc3)sc2c1 | -17% | -1%
COc1ccc(CCCc2nnc(SCC(=O)Nc3cccc(F)c3C)o2)cc1 | -16% | -11%

molecule | HTT promoter inh | PMP22 txn
Cc1cccc(NC(=O)Cn2nnc(C(=O)NCc3cccs3)c2N)c1 | -8% | -8%
COc1ccc(NC(=O)/C(C#N)=C/c2ccc(C)o2)cc1 | 49%[activator] | 2%
COc1ccc(CCNC(=O)CCCCn2c(=O)c3ccccc3n(Cc3ccccc3C)c2=O)cc1OC | ? | ?
Cc1nc2c(C(=O)NC(C)c3ccccc3)cnn2c(C)c1Cc1ccccc1 (stereo not given) | ? | ?
CCOc1ccc(NC(=O)c2cc3sc(Cl)cc3n2CC)cc1 | -16% | 12µM*
CCOc1ccc(-c2nonc2NC(=O)c2ccco2)cc1OCC | -25% | -22%
CC1=C(C(=O)Nc2cccnc2)C(c2ccccc2)n2nc(SCc3ccccc3Cl)nc2N1 (stereo not given) | -7% | -15%
CCOC(=O)c1c(N)n(-c2ccccc2CC)c2nc3ccccc3nc12 | 2% | ?
CCc1cccc(NC(=O)c2ccc(NC(=O)N3CCSc4ncccc43)cc2)c1 | ? | -5%
COc1ccc(-c2nc(CNC(=O)Nc3ccccc3)c(C)o2)cc1 | ? | 7%
COc1ccc(S(=O)(=O)NCCc2cn3ccsc3n2)cc1OC | 1% | 2%
CCN(CC)CCCNC(=O)c1ccc2nc(CCc3ccccc3)oc2c1 | 0% | -6%

molecule | HTT promoter inh | PMP22 txn
Cc1ccc(CCNC(=O)CCCn2nc(C)c3c(C)n(-c4ccc(C)cc4)nc3c2=O)cc1 | -24% | ?
CC(C)OCCCN(Cc1ccco1)C(=O)c1cc2c(s1)-c1ccccc1OC2 | ? | ?
CCCN(C(=O)CCNC(=O)Cn1cnc2ccccc2c1=O)c1cccc(C)c1 | -3% | -2%
Cc1ccc(C)c(CN2C(=O)c3ccccc3S(=O)(=O)c3ccc(C(=O)NCc4ccccc4)cc32)c1 | -16% | 10%
CCOC(=O)c1ccc(NC(=O)CSc2nc3ccccc3c(=O)n2CCNC(C)=O)cc1 | -13% | 0%
O=C(CSc1ncc2c(n1)-c1ccccc1N(Cc1ccc(F)cc1)S2(=O)=O)NCCc1ccccc1 | -8% | 18µM*
CC(CNS(=O)(=O)c1ccc2c(c1)CC(=O)N2C)c1ccccc1 (stereo not given) | -13% | -13%
Cc1ccc(NC(=O)C2CCCN(c3ncnc4onc(C)c34)C2)cc1Cl (stereo not given) | ? | ?
COc1ccc(-c2cn3c(n2)sc2cc(C(=O)Nc4ccc(F)cc4)ccc23)cc1 | 17% | 1%
COc1ccc(C(=O)Nc2ccc(S(=O)(=O)Nc3cc(C)nc(C)n3)cc2)cc1 | 6% | 41%
CCCCCCCCCCOc1cc2c(=O)c(C(=O)OCC)c[nH]c2cc1OCC | 0%[6.01 µM] | .
COc1ccc(CNC(=O)c2ccc3c(c2)N(C)C(=O)C2CCCCN32)cc1OC (stereo not given) | 20% | 0%

molecule | HTT promoter inh | PMP22 txn
CCn1c(=O)c2cc(C(=O)N(CCCOC(C)C)Cc3ccco3)sc2c2ccccc21 | -31% | ?
CCc1ccccc1NC(=O)c1ccc2c(O)c(S(=O)(=O)c3ccccc3)c(=O)[nH]c2c1 | -15% | -4%
COc1ccc(Cn2ccc3nc(C)c(C(=O)N4CCN(c5ccccc5F)CC4)cc3c2=O)cc1 | ? | ?
COc1ccccc1CCNS(=O)(=O)c1ccc(N2CCCCS2(=O)=O)cc1 | ? | ?
CN(C)CCNc1oc(-c2ccc(COc3ccc(Cl)cc3)o2)nc1C#N | -13% | ?
O=C1CC(c2ccccc2)Sc2ccccc2N1Cc1ccccc1F (stereo not given) | -27% | -16%
COc1ccc(N2C(=O)C(CC(=O)Nc3ccc(F)cc3)N(Cc3ccc4c(c3)OCO4)C2=O)cc1 (stereo not given) | -22% | 7%
COc1ccc(N2CCN(C(=O)c3c(C)oc4nc(C)nc(N5CCCC5)c34)CC2)cc1 | 0% | -27%
CC(=O)c1cccc(Nc2nc(-c3ccccc3Cl)nc3ccccc23)c1 | -31% | 11µM*
O=C(CSc1cn(CC(=O)N2CCCC2)c2ccccc12)Nc1ccc(Cl)cc1 | ? | ?
c1ccc(Nc2c(-c3ccccc3)nc3ncccn23)cc1 | -19% | ?
CCCCC(=O)Nc1ccc2nc(SCC(=O)N3CCc4ccccc43)sc2c1 | ? | ?

molecule | HTT promoter inh | PMP22 txn
Cc1ccc(CN2CCCn3nc(C(=O)NCCc4ccccc4C)cc3C2=O)cc1 | -33% | 9%
Cc1c(C(=O)Nc2cccc(C#N)c2)sc2nc3n(c(=O)c12)CCCCC3 | 50%[activator] | -23%
CCOc1ccc(CCNC(=O)c2ccc3c(c2)N(Cc2ccc(F)cc2)CCS3)cc1 | -34% | -32%
Cc1ccc(/C=C/c2onc(C)c2S(=O)(=O)N2CCC(C(=O)NCC(C)c3ccccc3)CC2)cc1 (stereo not given) | -6% | 13µM*
COc1ccccc1N1CCN(C(=O)Cn2cnc3onc(-c4ccc(F)cc4)c3c2=O)CC1 | -19% | ?
CCn1nc(C)c(CCN(C)C(=O)Nc2cc(OC)c(OC)c(OC)c2)c1C | -1% | 1%
